Screens from PubChem BioAssay.
GLA inh pH 4.5 – alpha-galactosidase A (human) inhibition, pH 4.5 | purified enzyme, 4-MU-alpha-Gal fluorescence, pH 4.5 | AID 1467 | activity change, negative = inhibition, % at 105 µM | P06280 | 230,000 tested, under 10 active; inconclusive = small, poorly fitted or top-dose-only inhibition, or a rising curve; inactive = flat fitted curve, though single readings scatter; no compound was filed as active;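 also: 0% = full activity with enzyme and -100% = basal without enzyme; dose as in the result columns while the protocol names 77 µM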
Rango dissoc inh – inhibitors of RanGTP-induced Rango-importin beta complex dissociation; O95149+P62826; Biochemical FRET Rango-importin beta, RanGTP-induced dissociation; Potency, µM (highest dose often 46.1 µM), for the others: top-dose activity change, negative = inhibition; 340,000 compounds, 0.071% hits; active means falling FRET ratio curve, often poorly fitted, with flat reads before Ran was added; inconclusive means other falling curves, or compound fluorescence or quenching; inactive means flat or rising ratio curve;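 also: potency is read from the fitted curve at half-maximal effect; % of control where 0% means no effect; nearly all actives have a fitted effect of over 45% in size; -100% = wells without RanGTP and RCC1; the record marks most hits as doubtful in a second field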
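Rango/importin beta premix (0.1/0.25 uM final), PBS + 1 mM DTT + 0.02% Tween-20 + 0.1% BSA; cpd 5 min RT; FRET pre-read; + RanGTP-RCC1 (0.6 uM Ran, 2 mM GTP, 0.2 uM RCC1); 45 min RT; FRET post-read, ex 430, em 486/530 nm.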
Rango-impB inh – Rango-importin beta binding inhibition. Q14974. Rango CFP/YFP FRET sensor + importin beta, 45 min. Potency, µM (doses to about 92.2 µM), inactives show at the top dose inhibition of complex formation. 340,000 compounds, 0.031% hits; active = rising FRET ratio curve, often small or poorly fitted; inconclusive = mostly compound fluorescence or quenching in the first reads; inactive = flat curves in all reads;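 also: potency is read from the fitted curve at half-maximal effect; 0% = DMSO wells and 100% = buffer wells lacking importin beta; nearly all actives have a fitted effect of over 15% in size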
Target sequence (Q14974 whole entry, looked up): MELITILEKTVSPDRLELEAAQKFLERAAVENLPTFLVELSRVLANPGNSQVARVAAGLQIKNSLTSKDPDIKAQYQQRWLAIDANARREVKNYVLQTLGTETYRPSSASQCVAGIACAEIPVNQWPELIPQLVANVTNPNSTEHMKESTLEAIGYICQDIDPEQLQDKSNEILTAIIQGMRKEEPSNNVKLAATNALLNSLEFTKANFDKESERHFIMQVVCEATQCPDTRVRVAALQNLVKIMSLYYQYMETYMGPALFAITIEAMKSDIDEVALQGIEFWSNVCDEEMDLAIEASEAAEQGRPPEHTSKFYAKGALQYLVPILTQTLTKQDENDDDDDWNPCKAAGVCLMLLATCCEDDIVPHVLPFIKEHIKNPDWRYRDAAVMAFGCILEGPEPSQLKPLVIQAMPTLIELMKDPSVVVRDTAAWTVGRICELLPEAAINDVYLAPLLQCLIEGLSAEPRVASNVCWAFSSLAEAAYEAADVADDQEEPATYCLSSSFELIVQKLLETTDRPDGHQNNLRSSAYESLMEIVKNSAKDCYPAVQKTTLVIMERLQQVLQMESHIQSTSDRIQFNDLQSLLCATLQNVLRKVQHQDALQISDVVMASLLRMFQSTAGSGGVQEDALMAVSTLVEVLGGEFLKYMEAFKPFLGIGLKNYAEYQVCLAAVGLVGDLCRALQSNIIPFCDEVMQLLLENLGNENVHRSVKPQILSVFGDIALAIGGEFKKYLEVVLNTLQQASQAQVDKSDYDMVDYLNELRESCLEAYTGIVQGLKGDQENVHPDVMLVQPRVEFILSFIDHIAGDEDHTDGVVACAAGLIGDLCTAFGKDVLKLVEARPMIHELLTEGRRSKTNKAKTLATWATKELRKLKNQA
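FRET biosensor (snurportin 1 IBB flanked by EYFP and cerulean), 50 nM, with compound 5 min, then 0.125 microM importin beta in PBS, 1 mM DTT, 0.02% Tween-20, 0.1% BSA. CFP/YFP ratio read after 45 min at room temperature; pre-read flags interference.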
miR-21 reporter – miR-21 reporter, rising signal | HeLa miR-21 FLuc reporter, luciferase, 48 h | Potency, µM (series often up to 38.3 µM), without a hit: at the highest dose reporter change, positive = more light | 340,000 tested, under 10 active | AID 2288; active = well fitted rising curve with a large enough effect; inconclusive = small, poorly fitted or top-dose-only effect; inactive = no such curve, though single readings can be large or run the other way;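 also: % of control where 0% means no effect; miR-21 action dims this reporter so a rising signal means less miR-21 action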
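HeLa cells endogenously expressing miR-21, stably carrying CMV-driven firefly luciferase with a downstream miR-21 binding site, 2000 cells/well. Titrations up to approximately 40 uM, 48 hours; luciferase luminescence read.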
* = called active by the depositor; ? = inconclusive; · = no result given; & = joins results of further samples. Some of the compounds tested; the hit share may differ from the screen's.

SMILES | GLA inh pH 4.5 | Rango dissoc inh | Rango-impB inh | miR-21 reporter
CSc1ccccc1NC(=O)CN(c1cc(C)cc(C)c1)S(C)(=O)=O | 4 | 0% | -6.8% | -16%
O=C(NCc1n[nH]c(=S)n1-c1cccc(C(F)(F)F)c1)c1ccc(S(=O)(=O)N2CCCCC2)cc1 | · | -7% | -5.2% | 1%
CCOC(=O)N1CCN(C(=O)C(NC(=O)C2CCC(C)CC2)C(C)C)CC1 (configuration not stated) | 3 | 32% | -0.9% | -3%
CCOc1ccccc1Nc1nc2ccc(C)cc2n2cnnc12 | · | -7% | 0.0% | -5%
CN(C(=O)c1nn(C)c2c1CS(=O)(=O)c1ccccc1-2)c1cccc(Cl)c1 | · | 11% | -1.5% | -1%&0%
O=C(OCc1c(F)cccc1Cl)c1cc([N+](=O)[O-])ccc1N1CCOCC1 | · | -13% | -0.1% | ·
O=C(CN1C(=O)NC2(CCCCCC2)C1=O)c1ccc(Cl)s1 | · | -6% | -0.2% | ·
CCOC(=O)C(NC(C)=O)C(=O)O (configuration not stated) | 8 | 19% | -2.3% | -3%
Cc1nc2cc(C)c(C)cc2o1 | · | -1% | 5.2% | ·
O=C(Nc1ccc2nc(-c3ccccc3)[nH]c2c1)c1cccs1 | 1 | 7% | ? | -22%
COc1cccc(NC(=O)CN(C)C(=O)c2cc(-c3ccc(F)cc3)nc3ccccc23)c1 | · | 0% | 6.4% | ·
COc1ccccc1N=Nc1c(C)[nH][nH]c1=O | · | 2% | 3.5% | -29%
O=C(Cc1ccc([N+](=O)[O-])cc1)Nc1cccnc1 | -6 | -8% | -0.2% | 1%
O=C1CSc2ccc(S(=O)(=O)N3CCN(c4ccccc4)CC3)cc2N1 | · | 15% | -0.1% | 14%
CN(C)S(=O)(=O)n1cnc(C(CCO)c2ncn(S(=O)(=O)N(C)C)c2CCCO)c1 (configuration not stated) | · | 0% | 0.3% | ·
COc1ccc(C)cc1NC(=O)NNC(=O)C(C)Oc1ccc(F)cc1Cl (configuration not stated) | · | -13% | -3.7% | -1%
CSCC[C@H](NC(=O)[C@H](Cc1ccccc1)n1c(=O)[nH]c2ccccc2c1=O)C(=O)NCC1CCC(C(=O)O)CC1 (some centres not stated) | · | -10% | -2.4% | 0%
O=C(CC1C(=O)N(c2ccc(Cl)cc2)C(=S)N1CCc1ccncc1)Nc1ccc(F)cc1 (configuration not stated) | -10 | -8% | -1.4% | 23%
COc1ccc(-c2cn[nH]c2N)cc1OC | 10 | 8% | -2.2% | 4%
CCn1ccnc1CN(C)C(=O)c1cc(COc2c(F)cccc2F)on1 | 1 | -5% | 4.1% | -12%
COC(=O)c1cc2oc(C)cc2n1CC(=O)Nc1ccc(OC)c(OC)c1OC | 3 | · | · | -2%
O=C(c1cccc(Cl)c1)N1CCN(S(=O)(=O)c2ccc(Cl)s2)CC1 | · | -10% | -0.8% | ·
COc1ccc(NC(=O)CSc2cc(C)nc3c(-c4ccccc4)cnn23)cc1 | -19 | -18% | 1.7% | 0%
Cc1cc(NS(=O)(=O)Cc2ccccc2)cc(C)c1OCC(=O)N1CCOCC1 | -17 | 6% | 0.0% | 6%
CC1(C)C(=O)N(c2ccccc2)C1c1ccccc1O (configuration not stated) | · | -13% | 2.2% | 26%
CCc1nc(SCC(=O)Nc2ccccc2C(=O)OC)n[nH]1 | 8 | -2% | -0.6% | -2%
O=C(COc1cc2oc(=O)c3c(c2cc1Cl)CCC3)NCC1CCC(C(=O)O)CC1 (configuration not stated) | · | 1% | 2.6% | -3%
COc1ccc(OC)c(NC(=O)CCn2ccnc2)c1 | · | 2% | -3.2% | 0%
Cn1c(SCC(=O)O)nnc1C1CCCCC1 | 5 | -9% | -0.3% | -2%
CCCS(=O)(=O)N1CCCC(C(=O)N2CCN(c3ccccc3)CC2)C1 (configuration not stated) | -2 | 5% | 4.0% | -2%
Cc1ccc(C(=O)CSc2nnc(COc3ccc(C#N)cc3)n2-c2ccccc2)cc1 | 4 | -6% | -7.0% | -6%
Cc1ccc(-n2ncc3c(=O)n(CC(=O)N(C)C)cnc32)cc1 | · | 3% | -0.2% | -2%
COc1cc(OC)cc(C(=O)NC2CCN(Cc3nnnn3Cc3cccs3)CC2)c1 | 3 | 8% | 1.9% | -11%
Cc1cc(C(=O)N/N=C2\CCCC(C)C2)n[nH]1 (configuration not stated) | 4 | 0% | -2.2% | -8%
Cc1cc(C)c(NC(=O)CS(=O)CC(=O)Nc2ccc(-n3cnnn3)c(C)c2)c(C)c1 (configuration not stated) | · | -15% | -4.0% | 2%
O=C(N/N=C/c1cc(Br)cs1)c1ccc2c(c1)OCCO2 | 5 | 5% | 2.3% | 5%
CC(=O)Nc1ccc(NC(=O)CSc2nnc(C3CC3)n2C)cc1 | 3 | -1% | -1.8% | 6%
Cc1ccc(NS(=O)(=O)c2ccc(C(=O)NCC3CCCO3)cc2)cc1 (configuration not stated) | -2 | -1% | 1.3% | 12%
COc1cc(C2NC(=S)NC(C)=C2C(=O)OC(C)C)ccc1OC(C)C (configuration not stated) | -14 | 6% | -0.2% | -6%
Cc1ccc(-n2nc(C)c3c2OC(N)=C(C#N)C3c2ccc(C)o2)cc1 (configuration not stated) | -6 | 21% | 2.7% | -6%
CCCCn1c(N)c(NCc2ccccc2)c(=O)[nH]c1=O | -5 | -12% | ? | 3%
O=S1(=O)CCOCCCN1Cc1ccccc1 | · | 6% | ? | 2%
CC(=O)Nc1ccc2nc(-c3ccco3)[nH]c2c1 | 1 | 1% | -6.8% | -46%
Cc1ccc(NC(=O)c2ccc(S(=O)(=O)N3CCC(C)CC3)cc2)cc1 | -1 | 11% | ? | 2%
COc1ccc(Cl)cc1S(=O)(=O)n1ccnc1 | · | -22% | -1.5% | -8%

Entries of single compounds, looked up by structure. Order of values: GLA inh pH 4.5	Rango dissoc inh	Rango-impB inh	miR-21 reporter
`COc1cccc(NC(=O)CN(C)C(=O)c2cc(-c3ccc(F)cc3)nc3ccccc23)c1` in the list: ·	0%	6.4%	·
`O=C(N/N=C/c1cc(Br)cs1)c1ccc2c(c1)OCCO2` in the list: 5	5%	2.3%	5%

(listing goes on)
SMILES | GLA inh pH 4.5 | Rango dissoc inh | Rango-impB inh | miR-21 reporter
CCOC(=O)CNC(=O)N1CCCC(N(C)CCc2ccccc2)C1 (configuration not stated) | · | -10% | -4.7% | 0%
CCc1nnc(NC(=O)CCC(=O)N2CCN(S(=O)(=O)c3ccc(OC)cc3)CC2)s1 | · | 2% | -0.4% | -1%
N#Cc1c([N+](=O)[O-])cc([N+](=O)[O-])cc1S(=O)(=O)Cc1ccccc1 | · | -1% | -0.5% | ·
Cc1ccccc1C(=O)Nc1ccnn1C1CCN(Cc2ccncc2)CC1 | · | 0% | 2.7% | -7%
NC(=O)CC(NC(=O)c1ccccc1)c1ccc(NCCCN2CCCC2=O)c([N+](=O)[O-])c1 (configuration not stated) | · | -5% | 4.8% | 2%
Cc1ccc(CCn2c3c(c4ccccc42)CN(C)CC3)cn1 | 1 | -7% | -3.6% | 5%
COc1ccc(S(=O)(=O)Nc2cccc3c2O[C@H](CN(C)S(=O)(=O)c2ccccc2)[C@@H](C)CN([C@H](C)CO)C3=O)cc1 | · | -5% | 3.6% | ·
COc1ccc(-c2cc(=O)oc3c(C)c(O)c(CN(C)C)cc23)cc1 | 1 | ? | ? | 2%
N#Cc1ccc(CN2CCN(C(=O)CNC(=O)Cc3ccccc3)CC2)cc1 | · | -6% | 1.0% | ·
CN(C)C(=O)CN1CCN(Cc2cn(C)nc2-c2ccc3c(c2)OCCO3)CC1 | 5 | -4% | 1.3% | -4%
CN(C)C(=O)c1ccc(NS(=O)(=O)c2ccc3c(c2)OCCO3)cc1 | · | -5% | 2.6% | 6%
CCn1nc(C)c(CN2CCCC(C(=O)c3cccc(OC(C)C)c3)C2)c1C (configuration not stated) | -2 | -14% | -2.0% | 19%
O=C(Nc1nccs1)c1cc(-c2ccccc2)nn1-c1ccccc1 | 0 | -17% | 2.3% | 6%
CCC(=O)Nc1ccc(N2CCOCC2)c(S(=O)(=O)Nc2ccc(Cl)cc2)c1 | · | 34% | 4.9% | ·
O=C1N/C(=N\N=C\c2ccco2)SC1Cc1ccc(F)cc1 (configuration not stated) | 4 | 1% | -4.0% | -1%

Molecules from the list above containing a furan ring, fused or not, in the order listed:
SMILES | GLA inh pH 4.5 | Rango dissoc inh | Rango-impB inh | miR-21 reporter
COC(=O)c1cc2oc(C)cc2n1CC(=O)Nc1ccc(OC)c(OC)c1OC | 3 | · | · | -2%
Cc1ccc(-n2nc(C)c3c2OC(N)=C(C#N)C3c2ccc(C)o2)cc1 (configuration not stated) | -6 | 21% | 2.7% | -6%
CC(=O)Nc1ccc2nc(-c3ccco3)[nH]c2c1 | 1 | 1% | -6.8% | -46%
O=C1N/C(=N\N=C\c2ccco2)SC1Cc1ccc(F)cc1 (configuration not stated) | 4 | 1% | -4.0% | -1%

Further records:
SMILES | GLA inh pH 4.5 | Rango dissoc inh | Rango-impB inh | miR-21 reporter
Cc1cc(OCC(=O)Nc2nccs2)c2c(C)cc(=O)oc2c1 | · | 23% | 0.6% | 5%
CC(=O)NC(=S)Nc1ccc(NC(=O)COc2ccc(C(C)C)cc2)cc1 | 11 | 0% | 0.1% | -4%
Clc1ccc2c(N3CCCC3)ccnc2c1 | 10 | 5% | 0.0% | 4%
CCCCCC(=O)Nc1nc(C)c(-c2csc(Nc3cc(OC)ccc3OC)n2)s1 | 0 | 8% | 1.5% | -27%
O=C(CSc1nnc(-c2ccc(F)cc2)n1-c1ccccc1)NCCN1C(=O)CSC1=O | -10 | 2% | 0.0% | -17%
CCOc1ccc(CN2CCN(Cc3cnn(CC)c3C)CC2CCO)cc1 (configuration not stated) | -2 | -1% | 6.5% | -5%
CCC(=O)OCC(=O)c1c(N)n(Cc2ccccc2)c(=O)n(C)c1=O | -16 | -10% | -3.4% | 1%
Cc1ccc(C)c(S(=O)(=O)N/N=C/c2ccc(N(C)C)cc2)c1 | 1 | -11% | -0.2% | 0%
COc1ccc(N2CCC(CNC(=S)Nc3cc(C)cc(C)c3)C2)cc1 (configuration not stated) | -5 | -16% | 5.0% | 0%
CC(C)=C1SC(N2CCN(Cc3ccccc3)CC2)=NC1=O | -6 | -6% | 5.3% | -15%
CCC(CO)Oc1cc(NCc2ccccc2OC)c2ncn(C(C)C)c2c1 (configuration not stated) | · | ? | ? | ·
Cc1ccc(-n2nc3ccc(N)cc3n2)cc1 | 2 | ? | ? | -5%
Cc1ccc(S(=O)(=O)N[C@@H](Cc2ccccc2)C(=O)N2CCC(C(=O)N[C@@H](CCC(N)=O)C(=O)O)CC2)cc1 | · | -13% | -0.8% | 0%
O=C(c1ccc2c(c1)C(=O)N(c1ccc(Cl)cc1)C2=O)N1CCN(c2ccccn2)CC1 | · | 5% | -0.4% | ·
COc1ccccc1C(=O)N/C(=C\c1cn(S(=O)(=O)N(C)C)c2ccccc12)C(=O)N1CCCCC1 | · | 3% | -2.4% | 0%
O=C(CN1C(=O)CCC1=O)Nc1nc(-c2nc3ccccc3s2)cs1 | 1 | 19% | 1.7% | -47%
C=CCOc1ccc(CNC(C)(C)C)cc1OC | -3 | 23% | -0.5% | -3%
Cc1nnc(NC(=O)c2oc3cc(C)c(C)cc3c2C)s1 | -9 | · | · | -8%
Cc1c(NC(=O)/C(C#N)=C/c2c(N3CCCCC3)nc3ccccn3c2=O)c(=O)n(-c2ccccc2)n1C | 2 | ? | -1.2% | 0%
COc1ccc2sc(-c3ccccc3OC)c(-c3ccc(OCCN4CCCC4)cc3)c2c1 | · | -4% | -1.8% | ·
CCc1nn(-c2cc(Oc3cccc4ccccc34)nc(-c3ccccc3)n2)c(N)c1C#N | -3 | 7% | -3.4% | 3%
Cc1cccc(C)c1NC(=O)C1(N2CCN(C(=O)c3ccco3)CC2)CCCCC1 | -2 | 12% | -0.3% | -3%
CC(C)C[C@H](NC(=O)c1nc[nH]c1C(=O)NC(c1ccccc1)c1ccccc1)C(=O)OCc1ccccc1 | -5 | 1% | 0.6% | 0%
Cc1ccc(N2CCN(S(=O)(=O)c3ccc(C)cc3)CC2)cc1 | · | -13% | 1.5% | -1%
Cc1ccc(OCc2cc(C(=O)N3CCN(C4CCCCC4)CC3)no2)cc1C | · | -9% | ? | -41%
